# Assay outcomes (PubChem BioAssay)
# Bm FixLJ act = B. multivorans fixK reporter activation. B. multivorans fixK-promoter GFP reporter, 18 h; active compounds read high. z-score (test concentration not listed). 0.3% of 29,000 active. AID 1918990;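 active = replicate mean overnight rise in green fluorescent reporter signal, 3 or more SD over negative controls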;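 also: score is relative to vehicle wells of the plate; 300 nL library stock went into each well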
# Starred values were filed as active, the others as inactive.
SMILES,Bm FixLJ act
N#CC(c1ccc(Cl)cc1)c1c(Cl)cc(-n2ncc(=O)[nH]c2=O)cc1Cl (configuration not stated),-1.8
COc1ccc(-n2ncc3c2ncn2nc(COc4ccc(Cl)cc4)nc32)cc1,1.2
Cc1ccc(-c2nc3ccccc3s2)cc1NC(=O)COc1ccccc1,-0.04
CCCn1c(=NC(=O)c2cc3ccccc3o2)c(C(=O)OCC)cc2c(=O)n3ccccc3nc21,-1.1
Cc1cc(C(=O)N2CCc3c(nc(-c4cccnc4)nc3N(C)C)C2)n[nH]1,-0.37
CCOCCC(=O)NC1CCN(C(=O)c2ccccc2)CC1O (configuration not stated),-0.13
CC(=O)N1c2ccc(S(=O)(=O)NCc3ccccc3Cl)cc2CC1C (configuration not stated),0.15
CC1CCc2c(sc(NC(=O)CCCOc3ccc(C(C)(C)C)cc3)c2C(N)=O)C1 (configuration not stated),-1.6
CCCN(C(=O)c1cc2c(=O)oc3ccccc3c2s1)c1ccc(CC)cc1,0.45
CCn1c(C(=O)NCc2ccccc2)cc2sc(Cl)cc21,0.53
CCOC(=O)c1ccc(NC(=O)CCc2c(C)nc3c(-c4ccc(F)cc4)c(C)nn3c2C)cc1,-1.1
COc1ccc(C2c3c(oc4ccc(F)cc4c3=O)C(=O)N2Cc2ccc3c(c2)OCO3)cc1 (configuration not stated),-1
Cc1ccc2c(=O)cc(C(=O)Nc3ccc(S(=O)(=O)N4CCCC(C)C4)cc3)oc2c1C (configuration not stated),-1.5
COc1ccc(/C=C(/C#N)c2nc(-c3ccc(-c4ccccc4)cc3)cs2)cc1OC,0.01
COc1ccc(NC(=O)CSc2nc3cc(OC)c(OC)cc3c3nc(-c4ccccc4)nn23)cc1Cl,1.1
O=C(c1ccccc1O)N1CCN(Cc2ccccc2)C2CS(=O)(=O)CC21 (configuration not stated),-2.7
COc1ccc(CCNC(=O)Cn2c(=O)n(-c3ccc(C)c(C)c3)c(=O)c3c(C)c(C)sc32)cc1OC,0.47
O=C(CN1C(=O)COc2ccc(S(=O)(=O)N3CCCC3)cc21)N1CCN(c2ccc(F)cc2)CC1,-1.5
Cc1ccc(Oc2nc3ccccn3c(=O)c2/C=C(\C#N)c2nc3ccccc3s2)c(C)c1,-2.5
COc1ccc(C2C(C(=O)Nc3ccc(Cl)cc3)=C(C)Nc3nc(SCc4cccc(C)c4)nn32)cc1OC (configuration not stated),-1.7
CC(C(=O)NC1(C(=O)O)CCOCC1)n1cnc2ccccc21 (configuration not stated),-0.02
CCCC(=O)N1CCC2(CC1)CN(CCN(C)C1CCCCC1)C(=O)O2,-1
CC(C)OC(=O)N1CCC(c2nnc(CN3CCCC3)n2C2CC2)CC1,0.82
O=S(=O)(c1ccc(C2CCCCC2)cc1)N1CCN(c2ccc(Cl)c(Cl)c2)CC1,-0.98
CCOc1ccccc1C(=O)N1CCCCC1CCN1CCOCC1 (configuration not stated),-1.1
Cc1nc2ncccn2c1C(=O)NC1COCC1Cc1ccnc2ccccc12 (configuration not stated),1.1
CC1=C(C(=O)Nc2ccc(C)cc2C)C(c2cccs2)n2nc(SCc3ccccc3Cl)nc2N1 (configuration not stated),-2.2
CN(CC(=O)N1CCC(CCC(=O)Nc2ccccc2)CC1)Cc1cccnc1,-1.1
Cc1ccc(-c2n[nH]c3c2C(c2cccc(O)c2)N(c2ccc(C(=O)O)cc2)C3=O)cc1 (configuration not stated),0.07
COc1cccc(CCNC(=O)c2c(O)nc3c(C)cccn3c2=O)c1,0.09
Cc1nn(-c2ccccc2)c(OC(=O)c2ccccc2F)c1S(=O)(=O)c1ccccc1,-0.69
O=C(NC1COCC1Cc1ccncc1)C1(c2ccccc2)CC1 (configuration not stated),-1.2
CSc1ccc(-c2nc3ccc(C)cn3c2Nc2ccccc2C)cc1,1
Cc1ccc(NC(=O)CN2CCCC(C(=O)N3CCCC3)C2)cc1C (configuration not stated),1.1
CCc1ccc2ncc3c(-c4ccccc4)nn(-c4ccccc4)c3c2c1,3.3*
Cc1cccc2c1-c1sc(C(=O)NCCCN3CCN(c4ccccc4F)CC3)cc1CO2,-0.6
Cn1c(=O)oc2cc(S(=O)(=O)N3CCC(C(=O)NCc4ccc(F)cc4)CC3)ccc21,-0.47
COc1nc(-c2ccccc2)ccc1-c1noc(-c2ccccc2Br)n1,-1.8
Cc1nc(CNC(=O)c2ccc(-c3cncc(C(C)(C)O)c3)cc2)no1,-0.42
CCCc1nc2nc(C)c(NS(=O)(=O)c3ccc(CC(C)C)cc3)c(=O)n2[nH]1,-1.1
COc1ccc(Br)c2c1-c1nc(NC(=O)c3ccc(F)cc3)sc1C2,1.3
CNCCNCC1(O)CCCN(Cc2ccc(C(C)C)cc2)C1=O (configuration not stated),-5.2
CN(Cc1nc(-c2ccccn2)no1)Cc1ncccc1C(=O)O,0.05
COc1cc(NS(=O)(=O)c2ccc(N)cc2)ncn1,-0.95
Cc1cc(CC2CN(C(=O)c3csc(CN(C)C)n3)CC2O)n[nH]1 (configuration not stated),-3.1
O=C(O)[C@@]12Cc3ccccc3OCC1CN(S(=O)(=O)N1CCCCC1)C2 (some centres not stated),0.09
Cn1c(=O)c(=O)n(C)c2cc(NC(=O)c3cccc(F)c3)c(Cl)cc21,-0.67
Cc1ccc(C)c(CN2C(=O)c3ccccc3S(=O)c3ccc(C(=O)N4CCC(C)CC4)cc32)c1 (configuration not stated),-0.67
CCOC(=O)c1cccc(NC(=O)c2cc3cc4ccc(C)cc4nc3s2)c1,-1.7
CCOc1ccccc1-c1nnc(NC(=O)CN2CCCN(C)CC2)o1,0.62
CN(CC(=O)Nc1cccc(C(F)(F)F)c1)S(=O)(=O)c1cccs1,-1.6
Nc1ccc(N=Nc2ccccc2)c(N)n1,1.4
Cc1cccc(N2CCC(NC(=O)c3cc(C#N)cn3C)CC2)c1,-0.06
NC1=NC(c2cc(F)cc(F)c2)n2c(nc3ccccc32)N1 (configuration not stated),-0.6
Cn1c(CN2CCCCC2)nnc1C1CCCN(CCS(C)(=O)=O)C1 (configuration not stated),0.11
O=C1CN(C(=O)c2ccn[nH]2)CCN1Cc1ccccc1F,-0.4
COc1cc(OC)c(C(=O)NCc2nc(-c3ccccc3)no2)cc1OC,-2
CCOc1ccc(NC(=O)c2oc3ccccc3c2NC(=O)c2c(F)cccc2F)cc1,1.2
CCCc1cnc(C)nc1NC1CCN(C2CCS(=O)(=O)CC2)CC1,0.39
CCn1c(NCc2cccc(Cl)c2)nc2ccccc21,-0.39

# Next part
SMILES,Bm FixLJ act
COc1ccc(C(=O)NCCn2cc(SCC(=O)NCCc3ccc(OC)c(OC)c3)c3ccccc32)cc1,-0.88
O=S(=O)(c1ccc(-n2cnnn2)cc1)N1CCN(c2ccccc2F)CC1,0.74
CC(C)c1ccc2oc(-c3cccc(NC(=O)c4ccc5c(c4)OCCO5)c3)nc2c1,-0.08
CC1(O)CCOC2(CCN(C(=O)Cc3ccc(S(C)(=O)=O)cc3)CC2)C1 (configuration not stated),-0.01
COc1ccc(-c2nn(C)c3sc(C(=O)N4CCN(c5cccc(C)c5C)CC4)cc23)cc1OC,-0.35
Cc1ccc(C2c3c(oc4ccccc4c3=O)C(=O)N2c2ccc(C)cn2)cc1 (configuration not stated),-1.1
CCN1CCN(C(=O)c2ccc3c(c2)N(Cc2cc(C)ccc2C)C(=O)c2ccccc2S3(=O)=O)CC1,-1.7
CC(=O)[C@H]1CCC2C3CCC4=CC(=O)CC[C@]4(C)C3CC[C@@]21C (some centres not stated),-1.4
Cc1ccc(NS(=O)(=O)c2ccc3c(c2)n(C)c(=O)n3C)c(C)c1,-1.1
Cc1cc(OC(C)(C)C(=O)NC(C)Cn2cncn2)cc(C)c1Cl (configuration not stated),-0.08
C[N+]1(C)C2CC[C@H]1CC(OC(=O)C(O)c1ccccc1)C2 (some centres not stated),0.69
COc1cc(Cl)c(C)cc1NC(=O)CSc1cc(=O)n(C)c2cc(Cl)ccc12,0.3
CC(C)(C)OC(=O)N1CCC(c2c(C(=O)O)cnn2-c2ccc(F)cc2F)CC1,-0.73
Cc1nn(-c2ccccc2)c(OC(=O)c2ccccc2)c1S(=O)(=O)c1ccccc1,0.3
Cc1ccc(Nc2cc(=O)[nH]c(=O)[nH]2)cc1C,-0.29
COc1ccc2c(c1)-c1nc(NC(=O)c3ccc(C)cc3)sc1CC2,-0.82
CCN1CCN(C(=O)N[C@@H](C(=O)N[C@@H]2C(=O)N3[C@@H]2SC(C)(C)[C@@H]3C(=O)O)c2ccccc2)C(=O)C1=O,-4.4
CC(C)COc1ccc(C(=O)NCC2OCCc3ccccc32)cc1 (configuration not stated),-0.34
CCCCCS(=O)(=O)c1oc(-c2cccs2)nc1S(=O)(=O)c1ccc(C)cc1,-1.9
Cc1ccc(NC(=O)CCNC(=O)CSc2nnc(C)s2)c(C)c1,0.33
O1[As]2O[As]3O[As]1O[As](O2)O3,-1.4
COc1ccc(C2CN(C(=O)CCc3cnn(C)c3)C3C4CCN(CC4)C23)cc1 (configuration not stated),-0.52
CN(C)c1nc(-c2ccccn2)nc2c1CCN(C(=O)CCO)C2,-0.65
CC1=CCN(C(=O)CCN2C(=O)c3ccccc3S2(=O)=O)CC1,-1.6
CO[C@@]12CCC(OCCO)CC1N(C(=O)c1ccccc1C)CC2 (some centres not stated),-0.75
CC(=O)Nc1ccc(S(=O)(=O)NC2(C(F)(F)F)NC(=O)N(c3ccc(Cl)cc3)C2=O)cc1 (configuration not stated),-0.03
COc1ccc(NC(=O)C(NS(=O)(=O)c2cccc3nsnc23)c2ccccc2)cc1 (configuration not stated),0.14
Cc1cc(C(F)(F)F)nc(N2CCN(C(=O)CN3CCCC3=O)CC2)n1,-1.1
CCn1cc(C(=O)NCCc2ccc(Cl)cc2)c(=O)c2cc(S(=O)(=O)N3CCC(C)CC3)ccc21,-0.27
Cn1c(-c2ccccc2Cl)nc2cc(C(=O)NCCN3CCOC3=O)cnc21,-1.6
COc1cc(Cl)c(C)cc1Nc1c2c(nc3ccccc13)CCC2,0.19
CC(C)c1ccc2oc(-c3ccc(NC(=O)c4cccc(Br)c4)cc3)nc2c1,-1.1
Cc1cccc2c1-c1sc(C(=O)N(C)c3cccc(Cl)c3)cc1CO2,0.88
Cc1ccc(NC(=O)CN2C(=O)C(c3ccc(F)cc3)=NC23CCCCC3)c(C)c1,-1.8
Cc1ccc2[nH]cc(C(=O)N3CCCC(CN4CCOCC4)C3)c(=O)c2c1 (configuration not stated),-0.03
COc1ccc(OC)c(CCNc2nc3cc(OC)c(OC)cc3c3nc(-c4cccnc4)nn23)c1,0.76
COc1ccc(N2CCN(C(=O)CCc3c(C)nc4cc(-c5ccc(Cl)cc5)nn4c3C)CC2)cc1,1.5
COc1ccc(NC(=O)c2oc3ccccc3c2NC(=O)Cc2coc3ccc(C)cc23)cc1,-0.73
Cc1ccc(-n2nc(C)c3c(C)c(CCC(=O)NCc4cccc(Cl)c4)c(C)nc32)cc1C,0.87
CCN(CC)S(=O)(=O)c1cccc(C(=O)Nc2sc3c(c2C#N)CCC(C)C3)c1 (configuration not stated),0.39
CCc1nn(CC(=O)N2CCN(c3cccc(OC)c3)CC2)c(=O)c2cc3occc3n12,-1.8
O=C(Nc1c(Cl)cccc1Cl)c1cc(-c2ccc3c(c2)OCO3)on1,-1.6
Cn1c(=O)n(C)c2cc(N3CCOCC3)c(NC(=O)c3ccccc3Br)cc21,-0.46
Cc1ccc(CCNC(=O)N(C)CC2CC(=O)N(C3CCCC3)C2)o1 (configuration not stated),0.16
COc1cccc(C(=O)N2CCCCC2CCN2CCCCC2)c1 (configuration not stated),-0.2
CCN(CCCNC(=O)c1nn(-c2ccc(OC)cc2)c(=O)c2c1c1ccccc1n2C)c1cccc(C)c1,1.3
COc1cccc(CNS(=O)(=O)c2c(C)nc3scc(C)n3c2=O)c1,0.55
Cc1cccc(-c2nc3c4ccccc4nc(N4CCN(c5ccccc5F)CC4)n3n2)c1,-0.77
NC(=O)NCCC(=O)N1CCc2[nH]nc(-c3cccc4ccccc34)c2C1,-1
COc1cccc(C)c1NC(=O)NC(C)c1nncn1C(C)C (configuration not stated),0.06
Cc1noc(C)c1CN(C)C(=O)c1cc(-c2ccccc2)on1,-1.4

# A portion of the library (hit frequency here may not be typical).
